hNpr1 antagonist = antagonists of human natriuretic peptide receptor Npr1. HEK293 hNpr1 GloSensor cGMP, ANP-stimulated luminescence. Potency, µM (highest dose often 46.3 µM), for inactives: at the highest dose activity change, negative = inhibition, hits mostly inhibitors. 1.6% of 76,000 active; active = well fitted inhibition curve with a large enough effect; inconclusive = small, poorly fitted or top-dose-only effect; inactive = no such curve, though single readings can be large or run the other way;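 further: nearly all actives have a fitted effect of over 60% in size; nearly all hits also lower the signal before the agonist is added; a reference antagonist and vehicle were the controls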
Target sequence (P16066 whole entry, looked up): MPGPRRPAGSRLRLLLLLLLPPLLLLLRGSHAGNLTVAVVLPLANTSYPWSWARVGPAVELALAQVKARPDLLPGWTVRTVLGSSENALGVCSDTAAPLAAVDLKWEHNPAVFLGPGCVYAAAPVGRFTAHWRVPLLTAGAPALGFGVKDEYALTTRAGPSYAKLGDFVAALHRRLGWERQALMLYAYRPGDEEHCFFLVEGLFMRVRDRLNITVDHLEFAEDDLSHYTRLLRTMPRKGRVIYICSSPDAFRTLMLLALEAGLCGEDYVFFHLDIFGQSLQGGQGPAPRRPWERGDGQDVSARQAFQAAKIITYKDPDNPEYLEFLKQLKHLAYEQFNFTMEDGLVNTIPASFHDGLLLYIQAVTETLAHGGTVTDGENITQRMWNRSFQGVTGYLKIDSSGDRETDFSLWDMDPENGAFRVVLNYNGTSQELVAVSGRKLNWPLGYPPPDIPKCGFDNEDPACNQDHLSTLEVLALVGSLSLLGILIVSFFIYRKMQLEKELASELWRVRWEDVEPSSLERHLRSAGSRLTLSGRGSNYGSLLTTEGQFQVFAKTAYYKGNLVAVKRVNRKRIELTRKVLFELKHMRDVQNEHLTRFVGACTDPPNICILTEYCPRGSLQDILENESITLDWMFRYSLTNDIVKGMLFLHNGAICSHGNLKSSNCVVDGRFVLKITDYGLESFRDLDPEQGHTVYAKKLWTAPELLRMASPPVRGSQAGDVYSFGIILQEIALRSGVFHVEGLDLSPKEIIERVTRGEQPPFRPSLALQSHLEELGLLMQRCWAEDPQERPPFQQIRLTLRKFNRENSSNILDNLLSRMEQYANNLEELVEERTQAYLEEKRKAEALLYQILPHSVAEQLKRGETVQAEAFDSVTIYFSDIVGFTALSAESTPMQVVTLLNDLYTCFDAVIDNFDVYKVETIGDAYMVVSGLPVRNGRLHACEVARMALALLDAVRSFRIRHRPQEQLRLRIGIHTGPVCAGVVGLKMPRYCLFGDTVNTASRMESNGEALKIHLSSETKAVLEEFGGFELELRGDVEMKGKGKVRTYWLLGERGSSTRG
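Compound pre-incubated 30 min at room temperature on GloSensor-loaded HEK293 cells stably carrying hNpr1 and the pGS-40F cGMP biosensor. Stimulation uses hNppA at 0.1 nM final; luminescence is taken at baseline and 20 min post-agonist.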
* hit, by the source's call; ? = inconclusive; [ ] = another dose, or the depositor's remark. On the % scale 0 is the no-effect control and ±100 the full control effect; potency means the concentration at half of the fitted maximal effect. This is a subset (hit frequency here may not be typical).

SMILES	hNpr1 antagonist
CCc1noc(-c2cn(C3CCN(C(=O)c4ccc(OC(F)(F)F)cc4)CC3)nn2)n1	17%
CC(C)(C)c1ncc(C(=O)N2CCc3[nH]cnc3C2c2ccccn2)c(=O)[nH]1 (configuration not stated)	-4%
CCc1noc(C)c1C(=O)N1CCC(c2[nH]ncc2-c2ccccc2C)CC1	-13%
COCCN1C(=O)N(CCc2ccccc2)C(=O)C12CCN(C/C=C/c1ccccc1)CC2	-4%
COc1ccccc1-c1noc(-c2nc(-c3ccncc3)no2)n1	-5%
O=C(NC[C@H]1O[C@@H](CC(=O)N2CCN(c3ccccc3)CC2)[C@H](O)[C@@H]1O)c1ccc(F)c(Cl)c1	-4%
Cc1ccc(NC(=O)N2CC[C@@H]3C(=O)NCCCCCCN(Cc4ccncc4)[C@@H]3C2)cc1C	-3%
COc1cccc(CN2C[C@@H](CO)[C@H](C(=O)N(C)C)C2)c1	1%
COc1ccc(CCN(CC2CCN(C)CC2)C(=O)C2CC23CCC3)cc1 (configuration not stated)	1%
COc1ccc(CN2CCOCCNC(=O)CC2)cc1Cc1c(C)noc1C	-13%
COCCNC(=O)C[C@@H]1C[C@H]2O[C@H](CNC(=O)Nc3ccc(OC)cc3)[C@@H](O)[C@H]2O1	3%[70.6 µM]
O=C(Nc1nccs1)C1c2ccccc2C(=O)N(C2CCCC2)C12CCCC2 (configuration not stated)	-23%
COCCn1ccnc1C1CCCN(c2ncnc3c2CCC3)C1 (configuration not stated)	5%
CCn1cc(C(=O)N2CCC3(CC2)CN(Cc2ccccc2)CC3CO)cn1 (configuration not stated)	-2%
COc1cccc(C(=O)N2[C@@H]3CC[C@H]2CC(NC(=O)c2cnc(C)cn2)C3)c1 (some centres not stated)	6%
CCOc1ccccc1NC(=O)N1C[C@H](Oc2cccnc2)C[C@@H]1C(=O)N1CCOCC1	-1%
CCNC(=O)c1noc(-c2ccc[nH]c2=O)n1	3%
CN1CCN(CCNC(=O)c2cc(-c3ccccc3)cn2C)CC1	2%
COc1cccc(NC(=O)Cn2c(N3CCCCC3)nc(C)c(C)c2=O)c1	-14%
CS(=O)(=O)N1CCC(OC2CCN(C(=O)Nc3ccc4c(c3)OCCO4)CC2)CC1	1%
Cc1cn2nc(C(=O)Nc3ccccc3)cc2c(N(C)Cc2ccccc2)n1	15%
O=C(N1CCC(N2CC(OCC3CC3)C23CCOCC3)CC1)C1(c2ccccc2)CC1 (configuration not stated)	-4%
O=C(N[C@@H]1CN(C2CCCCC2)C[C@H]1CO)c1cccnc1	-3%
Cc1ccc2c(C)c(C(=O)N3CCOCC(CO)C3)oc2c1 (configuration not stated)	1%
Cc1ccc2c(-c3ccc(NC4CC4)nn3)cccc2n1	-3%

The last 4 records of the section before are carried over, then new ones follow.
SMILES	hNpr1 antagonist
O=C(N1CCC(N2CC(OCC3CC3)C23CCOCC3)CC1)C1(c2ccccc2)CC1 (configuration not stated)	-4%
O=C(N[C@@H]1CN(C2CCCCC2)C[C@H]1CO)c1cccnc1	-3%
Cc1ccc2c(C)c(C(=O)N3CCOCC(CO)C3)oc2c1 (configuration not stated)	1%
Cc1ccc2c(-c3ccc(NC4CC4)nn3)cccc2n1	-3%
COc1ccc(CCCN2C(=O)O[C@@H]3CN(c4nc(C)cc(C)n4)C[C@@H]32)cc1	-1%
O=C(c1cc(F)cc(F)c1)N1CC(c2nnc(-c3ccncc3)o2)C2(CCOCC2)C1 (configuration not stated)	-3%
CCc1ccccc1NC(=O)N1CCC(N(CCC(C)C)C2CCOCC2)CC1	0%
COc1ccccc1OCCNC(=O)CC1CCOCC1	21%
CCOc1ccccc1CN1CCCCCCNC(=O)CC1c1ccccc1 (configuration not stated)	-1%
Cc1nnc2n1CCC(N(C)C(=O)c1ccc3[nH]ccc3c1)CC2 (configuration not stated)	3%
CCOc1ccc(-c2nc(C3CC(=O)N(c4ccc(F)c(Cl)c4)C3)no2)cc1OCC (configuration not stated)	3%
CCc1nc2c(c(NCCn3nc(C)c(CC)c3C)n1)CCNCC2	0%
CC(=O)N1CC[C@H](c2nc3cc(F)ccc3o2)C1	7%[70.6 µM]
C[C@H]1[C@@H]2[C@@H](O)C([C@H](C)C(=O)NCc3ccco3)CC[C@@]2(C)CC[C@@H]1NC(=O)c1cncnc1 (some centres not stated)	1%
COc1ccc(C2(C(=O)NCCC3CCN(C(=O)Nc4ccccc4C)CC3)CC2)cc1	0%
COc1cccc(-c2cc(C3CCN(C(=O)Nc4cc(C)ccc4C)CC3)[nH]n2)c1	-15%
CC(C)(C)c1nnc(NC(=O)NCc2ccncc2)s1	3%
O=C([C@@H]1C[C@H](F)CN1S(=O)(=O)c1cc(F)ccc1F)N1CCc2ccccc2C1	-2%
CCc1ccccc1NC(=O)Cn1c(-c2ccccc2)nc(C)cc1=O	-12%
COCC1CN(C(=O)c2cc(C)n(C)n2)CC12CCNCC2 (configuration not stated)	-2%
O=C(N[C@@H]1[C@@H](Cc2ccccc2)[C@H]2OCC[C@@H]12)c1scc2c1OCCO2	-2%
O=C(c1ccccc1Cl)N1CCCC(c2nn(-c3ccccc3)c(=O)[nH]2)C1 (configuration not stated)	17%
Cc1cc(C)c(CNC(=O)c2nc(-c3cccc(CO)c3)cc3c2ccn3C(C)C)c(=O)[nH]1	0%
CC(C)(C)NC(=O)N1CCCCC1c1nc(CCOc2ccc(F)cc2)no1 (configuration not stated)	-30%
Cc1ccc2c(C(=O)NC3CCN(C)CC3)cc(NC(=O)C3CCC3)cc2n1	-2%
O=C(NCC1Cn2cccc2C(=O)N1Cc1ccccc1)c1ccc2ccccc2n1 (configuration not stated)	-29%
CN(C)c1cccc(C(=O)N2CCC3(CC2)NC(=O)N(c2cccc(F)c2)N3)c1	0%
Cc1ncoc1C(=O)N1C[C@@H](COCC2CC2)[C@H](c2ccccn2)C1	-1%
COc1ccc(CNC(=O)Cn2c(-c3ccc(F)cc3)nc(C)c(CCO)c2=O)cc1OC	0%

In a second layout: 4 of the compounds above
> COc1ccc(CCN(CC2CCN(C)CC2)C(=O)C2CC23CCC3)cc1 (configuration not stated)
  hNpr1 antagonist: 1%
> O=C(N[C@@H]1CN(C2CCCCC2)C[C@H]1CO)c1cccnc1
  hNpr1 antagonist: -3%
> Cc1cn2nc(C(=O)Nc3ccccc3)cc2c(N(C)Cc2ccccc2)n1
  hNpr1 antagonist: 15%
> CCc1noc(-c2cn(C3CCN(C(=O)c4ccc(OC(F)(F)F)cc4)CC3)nn2)n1
  hNpr1 antagonist: 17%

The listing continues:
SMILES	hNpr1 antagonist
OCC1(CC2CC2)CCCN(Cc2ccc(C(F)(F)F)nc2)C1 (configuration not stated)	-4%
CN(C)[C@@H]1CN(Cc2cc(F)c(F)c(F)c2)CC[C@@H]1CNC(=O)C1CC1	7%
COc1ccc(C(=O)N2CCC3(CC2)CC(O)CCO3)cc1F (configuration not stated)	-8%
COc1ccc(OC)c(-c2cnc3[nH]cc(CC(=O)NCc4cccnc4)c3c2)c1	?
O[C@H]1[C@H](NCc2ccco2)[C@H]2CO[C@H](O2)[C@@H]1N1CCCCC1	-1%[70.6 µM]
CN(C)[C@H]1CCCCN(C(=O)c2cnc3ccccn3c2=O)C1	2%
COc1cccc(CC(=O)N2CC(COc3ccccc3)C3(C2)CN(c2ccccc2)C3)c1 (configuration not stated)	-1%
O=C1[C@@H]2C[C@@H](O)CN2C2(CN(Cc3ccc(F)c(F)c3)C2)C(=O)N1Cc1ccccc1F	-2%
O=C(c1cccc(Cl)c1)N1CCC(c2n[nH]c(=O)n2-c2ccccc2)CC1	0%
Cc1cnc(C(=O)N2C[C@@H](Oc3cccnc3)C[C@H]2C(=O)N2CCCC2)cn1	3%
O=C1C(N2CCN(S(=O)(=O)Cc3ccccc3F)CC2)CCN1CCc1ccccc1 (configuration not stated)	4%
Cc1ccc(NC(=O)N2CCC(CCNC(=O)c3n[nH]c4ccccc34)CC2)cc1F	-16%
Cc1nn(C(=O)CCCC(=O)N2CCC(Cc3nncn3CC3CC3)CC2)c2ccccc12	0%
COc1ccc2nc3n(c2c1)[C@@H](CNC(=O)c1cnccn1)COC3	8%[70.6 µM]
CC(C)c1noc([C@H]2C[C@@H]3NCCCCCCNC(=O)[C@@H]3C2)n1	1%
Clc1ccc(-c2cnc([C@@H]3COCCN3Cc3ccccc3)[nH]2)s1	?
Cc1cccc2[nH]c(C3CCN(C(=O)C4NCCc5[nH]cnc54)CC3)nc12 (configuration not stated)	5%
CC(=O)N1CCC(N2C[C@@H](F)[C@@H](OCc3nc4ccccc4[nH]3)C2)CC1	4%[70.6 µM]
CC(C)c1noc([C@@H]2C[C@H]3C(=O)NCCCCCCN(C(=O)COc4ccc(F)cc4)[C@H]3C2)n1	-5%
Cc1ccsc1CN1CCCN(S(=O)(=O)c2ccccc2)CCC(=O)NCC1	-1%
CN(C)C[C@@H]1CN(S(C)(=O)=O)C[C@H]1NC(=O)NC1CCCCC1	5%
COCCNC(=O)CCc1c(C)nn(-c2ccc(F)cc2)c1Oc1ccccc1C	-6%
O=C(O)c1ccc(-c2nc3ncccc3[nH]2)cc1	8%[70.6 µM]
Cn1nccc1C(=O)N1CCCCCCNC(=O)[C@@H]2CCC[C@@H]21	4%
O=C(Cc1ccc(N(Cc2ccccc2)C(=O)c2ccco2)cc1)NCCc1ccccc1	-6%
SMILES	hNpr1 antagonist
COc1ccc(C(=O)N2C[C@@H](C(N)=O)[C@H](c3n[nH]c(C)n3)C2)c(OC)n1	7%
Cc1nn(C(C)C)c(C)c1CN1CC[C@@H](c2ccc3c(c2)OCO3)[C@H](O)C1	-1%
COCCC(=O)N1CCC(N2CCCC(C(=O)NCc3ccccn3)C2)CC1 (configuration not stated)	3%
CC(C)NC(=O)N1CCN(C(=O)c2cccs2)[C@@H](C(=O)N[C@H](Cc2c[nH]c3ccccc23)C(N)=O)C1	3%
COc1ccccc1CN(C)C1CCCc2ccccc21 (configuration not stated)	-5%[70.6 µM]
Cc1cnn(CC(=O)N2C[C@@H](COCC3CC3)[C@H](c3ccncc3)C2)c1	4%
CC1=C[C@@H](CNC(=O)CC2(CC(=O)O)CCCC2)[C@H](C(C)C)C[C@H]1Cc1nc2ccncc2[nH]1	1%
N#Cc1ccccc1N1CCN(C(=O)CCc2ccc(F)c(F)c2)CC1=O	-5%
O=C(c1n[nH]c2ccccc12)N1CCC(Cc2nc(-c3ccccc3)n[nH]2)CC1	-2%
O=C(NC1CCN(c2cc(-c3ccccc3)[nH]n2)CC1)c1ccoc1	-14%
COc1ccc(C(=O)N2CCC3(CC2)COc2ccccc2C(=O)N3)cc1	-6%
CCNC(=O)N[C@H]1CC[C@]2(C)CC[C@@H](C(C)C(=O)NC3CCCCC3)[C@H](O)[C@H]2[C@@H]1C (some centres not stated)	0%[70.6 µM]
COc1cccc(CN(C)C2CCc3nn(C)c(=O)n3CC2)n1 (configuration not stated)	0%
O=C(c1n[nH]c2ccccc12)N1CCc2nn(Cc3ccccc3)c(=O)n2CC1	-5%
CCN1c2cc(C(=O)Nc3ccc(OC)cc3OC)ccc2C(=O)N2CCCC21 (configuration not stated)	0%
COCCN1C(=O)c2cccn2CC1CNS(=O)(=O)c1ccc2c(c1)C(C)(C)C(=O)N2 (configuration not stated)	-3%
COCCNC(=O)[C@@H]1C[C@H](Oc2ccccc2)CN1C(=O)CC1CCCCC1	-4%
Cc1noc(C)c1Cc1ccc(C(=O)N2CCC(C)(c3noc(-c4cccnc4)n3)CC2)o1	-23%
Cn1cnc(S(=O)(=O)N2CCC(Cc3nncn3CC3CC3)CC2)c1	3%
CCc1ccccc1OCCN(C)Cc1ncc[nH]1	2%
C[S+](=O)([O-])c1ccc(CC(=O)N2CC(CNC(=O)C3CC3)C3(C2)CN(c2ccccc2)C3)cc1 (configuration not stated)	1%
Cn1nnnc1C1CCCN(C(=O)Cc2ccccc2)C1 (configuration not stated)	8%
COc1cc(Cl)c(C)cc1NC(=O)Cn1cccc1-c1nc(-c2ccc3c(c2)OCO3)no1	2%
Cc1ncoc1C(=O)N1CCC(N2CC(OCC3CC3)C23CCOCC3)CC1 (configuration not stated)	4%
CCOC(=O)C1=CN(CC(=O)Nc2ccc(C)cc2C)S(=O)(=O)N=C1C	-11%
SMILES	hNpr1 antagonist
CNC(=O)[C@H]1C[C@H](Oc2cccnc2)CN1C(=O)Cc1cccc(C)c1	0%
CC(C)SCC(=O)N1CCCn2nc(C(=O)Nc3ccccc3)cc2C1	-20%
CCNC(=O)O[C@@H]1CO[C@H]2[C@@H]1OC[C@@H]2NC(=O)c1ccccn1	-1%[70.6 µM]
OCc1cc(CC2(NCc3cc4ccccc4o3)COC2)no1	15%[70.6 µM]
CCn1ccc(C(=O)NCC2CCCCC(=O)N2)n1 (configuration not stated)	-6%
CCN(CC)C1(Cc2cc(COc3ccccc3)on2)COC1	3%[70.6 µM]
Cc1ccc(N2CCN(C(=O)c3ccc4c(c3)N(C)C3CCCCN3C4=O)CC2)cc1 (configuration not stated)	5%
Cc1ccc(N2CCC(NC(=O)c3cc(F)cc(F)c3)C2=O)cc1 (configuration not stated)	5%

Reformatted with the structure last: entries from further up
hNpr1 antagonist	smiles
8%[70.6 µM]	O=C(O)c1ccc(-c2nc3ncccc3[nH]2)cc1
4%	Cn1nccc1C(=O)N1CCCCCCNC(=O)[C@@H]2CCC[C@@H]21
-6%	O=C(Cc1ccc(N(Cc2ccccc2)C(=O)c2ccco2)cc1)NCCc1ccccc1
7%	COc1ccc(C(=O)N2C[C@@H](C(N)=O)[C@H](c3n[nH]c(C)n3)C2)c(OC)n1
-1%	Cc1nn(C(C)C)c(C)c1CN1CC[C@@H](c2ccc3c(c2)OCO3)[C@H](O)C1
